Compound activity deposited in PubChem BioAssay by ICCB-Longwood Screening Facility, Harvard Medical School.
MgrA-DNA mod – S. aureus MgrA-DNA binding modulation | inhibition, %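 (about 10 µg/mL by stock and volumes)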 | fluorescence polarization | AID 602314 | actives 0.13% (n = 84,000);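 active = above 50% in either of two replicates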;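 note: 0% = protein plus DNA without compound and 100% = DNA alone without protein; higher means less MgrA bound to DNA so lower polarization; one replicate is shown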
Sa helicase inh – blocks Staphylococcus aureus DNA helicase; purified S. aureus helicase, fluorescence unwinding assay; about half of the hits fall short of the stated cut; inhibition, %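 (tested at about 80 µM)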; actives 0.05% (n = 120,000);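 active = both duplicates at 50% or more, or one of them with a favoured structure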;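 note: 0% = mean of negative control wells and 100% = mean of positive control wells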
Numbers without * were called inactive; · = no result given.

SMILES | MgrA-DNA mod | Sa helicase inh
Cc1ccc(N2C(S)=C(C#N)C(=O)NC2c2cccs2)cc1 (stereo not drawn) | · | -1.0
Cc1c(C(=O)O)oc2ccc3c(c12)C(=O)CC(C)(C)O3 | -5.9 | 7.0
O=S(=O)(c1cccc2nsnc12)N1CCN(c2ccccc2)CC1 | 0.2 | ·
CCOC(=O)c1[nH]c2c(c1C)/C(=N/O)CCC2 | · | 4.0
CC(C)OC(=O)C1=c2s/c(=C\c3cccnc3)c(=O)n2C(N)=C(C#N)C1c1cccnc1 (stereo not drawn) | 1.9 | -11.0
O=C(CCCCl)Nc1ccccc1N1CCOCC1 | -0.8 | ·
CCCCCCn1c(SCC(=O)/C(C#N)=C(\C)N)nnc1-c1c[nH]c2ccccc12 | · | 18.0
O=C(O)c1cn(-c2ccccc2)nc1-c1ccccc1 | · | -13.0
Nc1nc(NC(=S)NC2CCS(=O)(=O)C2)n[nH]1 (stereo not drawn) | · | -4.0
O=C(NCCCN1CCCC1)c1ccc(CS(=O)c2ccccc2)o1 (stereo not drawn) | -2.1 | 8.0
COc1cc2c(cc1OC)C1=C(C#N)CCC(=NC(=O)c3ccccc3F)N1CC2 | · | -17.0
O=C(CSCc1nc2sc3c(c2c(=O)[nH]1)CCC3)Nc1ccc(-c2nnc3n2CCCCC3)cc1 | · | -38.0
CC1(C)OC(=O)C(C23CC4CC(CC(C4)C2)C3)C(=O)O1 | · | 5.0
CC(C)(C)C(=O)Nc1cccc(C(F)(F)F)c1C(=O)O | 1.0 | ·
COc1ccc(NC(=S)NNC(=NS(=O)(=O)c2ccccc2)NNC(=S)Nc2ccc(OC)cc2)cc1 | 0.3 | ·
CN(C)S(=O)(=O)Nc1cccc(Br)c1 | 5.1 | 8.0
O=C(O)Cn1c2c(c3ccccc31)CCCC2 | 12.7 | -24.0
CC1CCN(c2ccc(/C=c3\sc4nc5ccccc5n4c3=O)cc2[N+](=O)[O-])CC1 | 4.8 | ·
O=C(O)c1ccc2c(c1)S(=O)(=O)c1ccccc1C2=O | 2.1 | 10.0
O=C1C2=C(Nc3ccccc3SC2c2cccnc2)c2ccccc21 (stereo not drawn) | · | 12.0
COc1ccc(N2C(=O)NC(=O)/C(=C/c3ccc(OC)c(OC)c3OC)C2=O)cc1 | 1.0 | ·
O=C(Cn1c(=O)[nH]n(-c2ccccc2)c1=O)N1CCc2ccccc2C1 | · | 9.0
COc1ccc(/C=C2/C(=O)C(C)(C(C)C)CCC2C)cc1 (stereo not drawn) | 3.1 | -3.0
CN(C)c1ccc(C(=O)NCCCN2CCCC2=O)cc1 | · | 7.0
COc1cc(C2C(C(=O)OCc3ccccc3)=C(C)NC3=C2C(=O)CCC3)cc(Br)c1O (stereo not drawn) | -1.6 | ·
Cc1nc2ccc(N)cc2s1 | -2.0 | 8.0
CC1(C)CC2(CCO1)OC(=O)CC2C(=O)NCCc1ccccc1 (stereo not drawn) | · | -2.0
Cc1ccc(C2C=C(c3ccc(Cl)cc3)Nc3nc(N4C(=O)CCC4=O)nn32)cc1 (stereo not drawn) | · | -14.0
c1ccc(N=C2SC(=NC3CCCCC3)C3=C2CCCC3)cc1 | -1.3 | ·
CCCc1cc(=O)[nH]c(SCC(=O)NC)n1 | · | 9.0
O=S(=O)(NCc1ccccc1)c1ccc(-c2cc(C(F)(F)F)on2)s1 | -3.6 | ·
O=C(c1ccccc1)N(c1ccc(Cl)cc1)C1C=CS(=O)(=O)C1 (stereo not drawn) | 0.9 | 10.0
Fc1ccc(Nc2nc3ccccc3nc2Nc2ccc(F)cc2)cc1 | 0.0 | 6.0
COc1ccc(NC2=NCCCCC2)cc1 | · | -1.0
CC(=O)N1CCc2c(sc(NC(=O)Cc3ccccc3)c2C(N)=O)C1 | · | -4.0
CC(NC(=O)CCC1=NS(=O)(=O)c2ccccc2N1)c1ccc2c(c1)OCCO2 (stereo not drawn) | · | 2.0
O=C(O)c1ccc(NC(=O)C2CC2)cc1 | -0.7 | -3.0
C/C(=N\NC(=O)C1CC1)c1ccc(C)cc1 | · | 2.0
Cc1ccc(NC(=S)N(C)/N=C/c2ccccn2)cc1Cl | 5.7 | ·
CC1=CC(C)=N/C1=C/c1c(O)[nH]c(=O)[nH]c1=O | · | -37.0

By substructure: those above containing a thiophene ring, fused or not.
SMILES | MgrA-DNA mod | Sa helicase inh
Cc1ccc(N2C(S)=C(C#N)C(=O)NC2c2cccs2)cc1 (stereo not drawn) | · | -1.0
O=C(CSCc1nc2sc3c(c2c(=O)[nH]1)CCC3)Nc1ccc(-c2nnc3n2CCCCC3)cc1 | · | -38.0
O=S(=O)(NCc1ccccc1)c1ccc(-c2cc(C(F)(F)F)on2)s1 | -3.6 | ·
CC(=O)N1CCc2c(sc(NC(=O)Cc3ccccc3)c2C(N)=O)C1 | · | -4.0

Remaining list, next part:
SMILES | MgrA-DNA mod | Sa helicase inh
CC1=CC(C)(C)N(C(=O)CN2C(=O)c3ccccc3C2=O)c2ccc(C)cc21 | · | 2.0
CC1=C(c2ccc(C)cc2)S(=O)(=O)N(CC(=O)N2CCN(c3ccccc3)CC2)C1=O | · | -15.0
Cc1ccc(NC(=O)c2ccccc2-c2cc(C)no2)cc1 | -1.8 | 2.0
CCC(=O)Nc1nc(-c2ccccc2)c(C)s1 | · | -2.0
CC(=O)Oc1c2c(C)[nH]nc2nc2c1c(=O)n(C)c(=O)n2C | · | 11.0
Cc1cccc(OCC(=O)Nc2ccccc2)c1 | -2.1 | 11.0
CCOc1cccc2sc(NN)nc12 | · | 9.0
COc1cccc(NC(=O)CN(CC(=O)Nc2cccc(OC)c2)CC2COc3ccccc3O2)c1 (stereo not drawn) | · | 1.0
Cc1cc(C)nc(NS(=O)(=O)c2ccc(NC(=O)c3cc([N+](=O)[O-])ccc3Cl)cc2)n1 | 0.4 | ·
COc1ccc2c(=O)c(-c3cnn(-c4ccccc4)c3)coc2c1 | · | 15.0
O=C(O)c1ccccc1SC(F)F | · | 11.0
CCCn1c(SCC(=O)NCC)nc2sc3c(c2c1=O)CCC3 | · | 11.0
S=c1sc2ccccc2n1CN1CCN(Cc2ccccc2)CC1 | 5.8 | 6.0
CCN(CC)C(=O)c1ccc(COc2ccc(Cl)c(C)c2)o1 | · | 7.0
Cc1nc(NCC(=O)O)c2oc3ccccc3c2n1 | -3.0 | 7.0
CCc1cccc(CC)c1NC(=O)COC(=O)c1ccc2ccccc2n1 | 2.6 | -23.0
Cc1ccc(C(=O)NNc2ncnc3c2cnn3C)cc1 | · | 16.0
COC(=O)C1CCN(C(=O)c2ccc(Cl)cc2)CC1 | 0.2 | ·
CC[C@H](C)[C@H](NC(N)=O)C(=O)Nc1ccccc1 | · | -9.0
CC(C)(C)C1CC=C2[C@H](C1)[C@@H](c1ccsc1)C(C#N)=C(N)C2(C#N)C#N (stereo partly drawn) | -0.3 | -14.0
O=C1CSc2ccc(S(=O)(=O)CCC(=O)N3CCCCCC3)cc2N1 | · | -15.0
Cc1nn(C)c(C)c1CNC(=O)c1cc2nc(-c3ccc4c(c3)OCO4)cc(C(F)(F)F)n2n1 | 1.4 | 6.0
O=C(NCc1ccc2c(c1)OCO2)c1ccc(Cl)cc1 | 0.5 | -2.0
CC(=O)Nc1ccc(C)c(OC(F)F)c1 | · | -9.0
CC(C)(O)c1cc(=O)sc2nc3ccccc3n12 | -3.0 | 4.0
Cc1ccc(C(=O)c2sc3nc(C)ccc3c2N)cc1 | · | 4.0
Cc1cc(C)cc(OCC(=O)N2CCNC(=O)C2CC(=O)OCc2ccccc2)c1 (stereo not drawn) | · | -13.0
CC1CCC(C(C)C)C(OCC(O)CNC(C)(C)C)C1 (stereo not drawn) | · | -24.0
COc1ccc2nc(-c3ccccc3)nc(N3CCCCC3)c2c1 | -1.2 | 11.0
COc1ccccc1CNC(=O)C(C)N1C(=O)COc2ccc(C)cc21 (stereo not drawn) | · | 24.0
Cc1ccc(-n2c(SCC(=O)NCC3CCCO3)nc3n[nH]c(C)c3c2=N)cc1Cl (stereo not drawn) | -4.0 | -3.0
CCC1/C(=N\O)CC(c2ccco2)NC1c1ccco1 (stereo not drawn) | 0.4 | 2.0
O=C(Nc1ccc(F)cc1)N1CCCC(c2nc3c(nnn3Cc3ccccc3Cl)c(=O)[nH]2)C1 (stereo not drawn) | -1.9 | -4.0
COc1cccc(CNC(=O)Nc2ccc3nc(N4CCN(C)CC4)cc(C)c3c2)c1 | · | 48.0
C(=Nc1cccc2c(N=Cc3ccco3)cccc12)c1ccco1 | -0.1 | 9.0
O=S(=O)(c1ccc(Cl)s1)N1CCSc2ccccc21 | · | 13.0
O=C(Oc1ccc2ccccc2c1)c1cccs1 | · | 2.0
Cc1ccc(NC(=O)Cn2nnc3ccccc32)cc1 | · | 16.0
Brc1ccc(-c2csc(Nc3cccnc3)n2)cc1 | 0.8 | ·
N#CC1=C(N)OC2=C(C(=O)CCC2)C12C(=O)Nc1ccc([N+](=O)[O-])cc12 (stereo not drawn) | 2.9 | ·
O=C(NC1CCCCCC1)c1ccc(CS(=O)(=O)Cc2ccccc2F)o1 | · | 2.0
Brc1cccc(Nc2nc3nonc3nc2NCc2ccco2)c1 | 1.0 | 2.0
CC(=O)Nc1c(C)nc2nc[nH]n2c1=O | 0.1 | 5.0
C[C@H]1[C@H]2CC[C@H]3[C@@H]4CC=C5C[C@@H](N(C)C)CC[C@]5(C)[C@H]4CC[C@]23CN1C | 1.9 | ·
CCOC(=O)c1ccsc1NC(=O)CN1C(=O)c2ccccc2C1=O | · | 8.0
Nc1ccccc1C1CC1 | -1.3 | -2.0
CC1(C)COC(c2ccc(O)cc2)OC1 | -0.6 | 1.0
O=C(CON1C(=O)CCC1=O)N1CCN(c2ccccc2)CC1 | · | 8.0
Clc1ccc(C2Nc3ccccc3O2)cc1Cl (stereo not drawn) | -2.0 | ·
Cc1nc(C)c(NC(=O)N2CCCCC2C)cc1NC(=O)N1CCCCC1C (stereo not drawn) | · | -25.0
Cc1c(C(=O)Oc2ccccc2F)oc2ccccc12 | 3.8 | -11.0
O=C(N=Nc1c(O)n(CN2CCCC2)c2ccccc12)c1ccccc1 | 4.6 | 2.0
COc1ccc(NC(=O)CCSc2nc3ccccc3s2)cc1 | · | 6.0
O=C(NC1CCCC1)C(c1cccs1)N(Cc1ccccc1)C(=O)C(F)(F)F (stereo not drawn) | 0.8 | 0.0
O=C(Cc1cccs1)NCc1ccc2[nH]c3c(c2c1)CCCC3 | 4.6 | 8.0
N/C(COc1ccc(-c2csnn2)cc1)=N\O | -0.6 | ·
CN(C)C(=S)SCC(=O)NC1CCCCCC1 | · | 24.0
CN(C)S(=O)(=O)c1ccc(N=CC2=C(O)CC(C)(C)CC2=O)cc1 | · | 9.0
C=CCSc1ncc(-c2ccccc2)cn1 | 0.2 | ·
O=C(COC(=O)C1CC1)c1ccccc1Br | · | -9.0

Continued.
SMILES | MgrA-DNA mod | Sa helicase inh
COc1ccc(N2Cc3ccc(OC)c(OC)c3C2=O)cc1 | 0.6 | -22.0
O=C1C=CC(=O)N1CCc1ccccc1 | -0.3 | 17.0
O=C(N/N=C/c1ccc([N+](=O)[O-])o1)c1ccc(O)cc1 | 2.1 | ·
COc1cc(/C=N/n2c(=S)[nH]nc(C)c2=O)cc(OC)c1OC | · | 7.0
CCOC(=O)Cn1nc(C(F)(F)F)c(Br)c1C1CC1 | -0.9 | 10.0
CC1Cc2ccccc2N1C(=O)COc1ncnc2ccc(Br)cc12 (stereo not drawn) | · | -5.0
Cc1ccc(-c2nn(-c3ccccc3Cl)cc2C(=O)Oc2ccc(-c3nnco3)cc2)cc1 | · | 3.0
CC(C#N)(Nc1ccc(Cl)cc1)c1ccccc1 (stereo not drawn) | -0.2 | ·
COc1ccc2cc(CCNC(=O)C(C)C)c(=O)[nH]c2c1 | · | -20.0
CCn1c(=O)n(CC)c2cc(NC(=O)CSc3ncc(C#N)c(N)n3)ccc21 | -0.8 | 16.0
CC(C)N(C(=O)C1CC(=O)OC12CCCCC2)C(C)C (stereo not drawn) | · | 10.0
Cc1ccc(C(=O)CCNc2ccc(F)c(Cl)c2)o1 | -0.2 | 5.0
COC(=O)c1ccccc1NC(=O)c1c(F)cccc1F | -0.6 | ·
CCn1cc2nc(SC)n(CCc3ccccc3)c(=O)c2n1 | · | 9.0
O=C(COc1coc(CN2CCN(Cc3ccccc3)CC2)cc1=O)NC1CCCCC1 | · | 18.0
COc1c2c(nc3occc13)C(CC=C(C)C)(OC)C(O)CC2 (stereo not drawn) | · | 10.0
COc1cc(C(Nc2ccc(S(=O)(=O)NCC3CCCO3)cc2)C(=O)NC(C)(C)C)cc(OC)c1OC (stereo not drawn) | 2.0 | -13.0
O=S(=O)(NC1CC1)c1ccc(S(=O)(=O)N2CCC3(CC2)OCCO3)cc1 | 0.8 | 1.0
NN(CCC(=O)NC1CCCCC1)C1=NS(=O)(=O)c2ccccc21 | 0.8 | 9.0
OCC1CC2CC(O)CC(C1)C2 (stereo not drawn) | 0.7 | 5.0

Part of the list above, as a markdown table.
| Structure | MgrA-DNA mod | Sa helicase inh |
| --- | --- | --- |
| O=C(N/N=C/c1ccc([N+](=O)[O-])o1)c1ccc(O)cc1 | 2.1 | · |
| CC(C#N)(Nc1ccc(Cl)cc1)c1ccccc1 (stereo not drawn) | -0.2 | · |
| COc1c2c(nc3occc13)C(CC=C(C)C)(OC)C(O)CC2 (stereo not drawn) | · | 10.0 |
| CC(C)N(C(=O)C1CC(=O)OC12CCCCC2)C(C)C (stereo not drawn) | · | 10.0 |
| CC1Cc2ccccc2N1C(=O)COc1ncnc2ccc(Br)cc12 (stereo not drawn) | · | -5.0 |
| COc1cc(/C=N/n2c(=S)[nH]nc(C)c2=O)cc(OC)c1OC | · | 7.0 |

(list continues)
SMILES | MgrA-DNA mod | Sa helicase inh
Cc1oc(-c2ccccc2)cc1C(=O)/C=C/N(C)C | · | -24.0
CCOc1ccc(NC(=O)CSc2nc(=O)n(CCCN3CCOCC3)c3c2CCCC3)cc1 | · | 9.0
NC(=O)CNC(=O)c1ccc2ccccc2n1 | -1.4 | 19.0
FC(F)C(F)(F)Oc1ccccc1 | · | 15.0
CCc1ccc2oc3nc(N)c(C#N)cc3c(=O)c2c1 | -0.2 | ·

Not all compounds are listed. The share of hits here may be higher or lower than overall.
